# S aureus helic – blocks Staphylococcus aureus DNA helicase | 120,000 tested, 0.05% active | inhibition, %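 (tested at about 80 µM)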 | purified S. aureus helicase, fluorescence unwinding assay; about half of the hits fall short of the stated cut | AID 485395;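 active = both duplicates at 50% or more, or one of them with a favoured structure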;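 also: 0% = mean of negative control wells and 100% = mean of positive control wells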
# MgrA DNA FP – S. aureus MgrA-DNA binding modulation | fluorescence polarization | inhibition, %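 (about 10 µg/mL by stock and volumes)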 | 84,000 tested, 0.13% active;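 active = above 50% in either of two replicates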;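 also: 0% = protein plus DNA without compound and 100% = DNA alone without protein; higher means less MgrA bound to DNA so lower polarization; one replicate is shown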
# * hit, by the source's call; nt = not tested or not shown.
S aureus helic	MgrA DNA FP	structure
nt	1.6	CN(C)c1ccc(C=Nc2ccc(C(=O)O)c(O)c2)cc1
-3	nt	O=C(Nc1ccccc1)c1ccc(-c2nc3ccccc3s2)s1
-7	nt	COC(=O)CSc1nc2c3ccccc3ncn2n1
nt	3.9	COc1ccc(OC)c(S(=O)(=O)N2CCc3cc(OC)c(OC)cc3C2C)c1 (stereo not drawn)
nt	-4.3	COC(=O)c1cc(=O)n(-c2ccc(C(F)(F)F)cc2)[nH]1
1	nt	CCOc1ccc(/C=C2/C(=O)Nc3ccccc32)cc1
8	-5.3	CCn1c(=O)c2cc(C(=O)NCC(OC)OC)sc2c2ccccc21
nt	1.4	CC(Oc1ccccc1)c1ccnc2ncnn12 (stereo not drawn)
-1	-4.0	CC(SCCc1ccccn1)C(=O)O (stereo not drawn)
-7	-0.8	O=C1CCc2cc(S(=O)(=O)NCc3ccccc3)ccc2N1
6	0.8	Fc1ccc(CN(Cc2ccco2)Cc2nnnn2CCc2ccccc2)cc1
11	-0.1	S=C(Nc1ccccc1Cl)N(CCN1CCCCCC1)Cc1cccs1
5	nt	Cc1cc(N2CCCC2)ccc1NC(=O)CNC(=O)C1CCCCC1
23	nt	COc1ccc(S(=O)(=O)C(F)(F)F)cc1S(=O)(=O)C(F)(F)F
nt	0.4	COc1cc2c(cc1OC)-c1c(C#N)c(-c3ccc(C)cc3)c(C(=O)c3cccs3)n1CC2
nt	-1.8	Cc1oc(C(C)(C)C)cc1C(=O)NCc1csc(-c2cccs2)n1
15	0.4	Cc1noc(/C=C/c2ccco2)c1S(=O)(=O)N1CCC(C(=O)N2CCCCC2)CC1
7	0.6	N/N=C(\CCC(=O)O)c1ccccc1
8	nt	Cc1ccc(C2=Nc3ccccc3N(CC(=O)Nc3ccc4c(c3)OCO4)C(=O)C2)cc1
14	nt	CC12CCC(=O)N1C(C(=O)OCC(=O)c1ccc(Cl)s1)CS2 (stereo not drawn)
-7	nt	Cc1cc(C)nc(N2Cc3ccccc3C2=NC(=O)c2ccc3c(c2)OCCO3)n1
9	-5.7	O=C(NCC(=O)N1CCN(c2ccccc2)CC1)c1ccc(Br)cc1
nt	-1.0	CC(=O)N1N=C(c2cccs2)CC1c1ccc(Br)cc1 (stereo not drawn)
nt	-0.4	OC(CNCc1ccc(Cl)cc1Cl)Cn1c(-c2ccc(F)cc2)cc2ccccc21 (stereo not drawn)
-2	nt	Cc1cc(C(=O)COc2ccc(C#N)cc2)c(C)n1CC1CCCO1 (stereo not drawn)
nt	3.2	On1nnc2ccc(C(F)(F)F)cc21
nt	1.1	CC(C)(C)c1ccc(C(=O)c2ncc[nH]2)cc1
-5	-1.3	COc1ccc2c(c1)cc(C(=O)O)n2C
13	-0.2	Cc1cc(C)cc(C(=O)Nc2ccc(N3CCN(S(C)(=O)=O)CC3)cc2)c1
7	0.5	C=CCn1c(CC(C)C)nnc1SCC(=O)Nc1ccc(Cl)cc1

# Reprinted at random: seven entries already listed
S aureus helic	MgrA DNA FP	structure
9	-5.7	O=C(NCC(=O)N1CCN(c2ccccc2)CC1)c1ccc(Br)cc1
nt	-0.4	OC(CNCc1ccc(Cl)cc1Cl)Cn1c(-c2ccc(F)cc2)cc2ccccc21 (stereo not drawn)
-7	nt	Cc1cc(C)nc(N2Cc3ccccc3C2=NC(=O)c2ccc3c(c2)OCCO3)n1
7	0.5	C=CCn1c(CC(C)C)nnc1SCC(=O)Nc1ccc(Cl)cc1
-2	nt	Cc1cc(C(=O)COc2ccc(C#N)cc2)c(C)n1CC1CCCO1 (stereo not drawn)
-5	-1.3	COc1ccc2c(c1)cc(C(=O)O)n2C
13	-0.2	Cc1cc(C)cc(C(=O)Nc2ccc(N3CCN(S(C)(=O)=O)CC3)cc2)c1

# Other entries
S aureus helic	MgrA DNA FP	structure
-2	-2.0	CC(C)(C)C(=O)Nc1ccc(NC(=O)c2ccco2)cc1
nt	-2.4	N#Cc1c(F)cccc1OCC(F)(F)F
8	nt	Cc1nnc(SC(C)C(=O)N2CCc3ccccc3C2)n(N)c1=O (stereo not drawn)
26	nt	O=C(c1cccs1)n1cnc2ccccc21
-24	nt	COc1ccc(NS(=O)(=O)c2ccc3oc(=O)ccc3c2)cc1
7	-1.1	CNc1cc(=O)n(C)c(=O)[nH]1
-9	nt	Cc1cc(C)cc(NC(=O)NCc2c(-c3ccccc3)noc2C)c1
2	nt	Cc1cc2c(c(=O)n1Cc1ccccc1)C(c1ccncc1)C(C#N)=C(N)O2 (stereo not drawn)
nt	-2.1	Cc1ccc(S(=O)(=O)NN2C(=O)c3ccccc3NC2c2cc(Cl)cc(Cl)c2O)cc1 (stereo not drawn)
2	nt	c1cnc2cc(CNCc3ccc4c(c3)OCO4)ccc2n1
9	5.9	Cc1ccc(N2CCN(CC(N)=O)CC2C)cc1 (stereo not drawn)
2	-1.9	O=C(CCC1Nc2c3ccccc3nc(=S)n2C1=O)NC1CC1 (stereo not drawn)
nt	-3.0	CCOC(=O)c1ccc(-c2cc(=O)c3ccccc3o2)cc1
-4	nt	CCOC(=O)c1c(NC(=O)C(C)Sc2nnc(C)s2)sc2c1CCCC2 (stereo not drawn)
2	nt	CN1C(N)=NC(=O)/C1=C/c1ccc(-c2ccc(Br)cc2)o1
nt	-0.3	N#CC(NC(=S)Nc1cccc(Cl)c1)c1ccccc1 (stereo not drawn)
0	0.9	CCCC(CCC)C(=O)Nc1ccccc1
7	nt	N#CCS(=O)(=O)c1ccc2c(c1)OCCO2
nt	0.6	CC(CCC(=O)O)C1CCC2C3C(=O)CC4CC(=O)CCC4(C)C3CC(=O)C12C (stereo not drawn)
14	7.4	O=C(NC1CCCCC1)C(c1ccc(O)c(O)c1)N(C(=O)Cn1nnc2ccccc21)C1CCCCC1 (stereo not drawn)
-7	3.0	CC(C)CCSc1nc(N)c(C#N)cc1C#N
-5	nt	COc1ccccc1C1CC(=O)NC(SCC(N)=O)=C1C#N (stereo not drawn)
-22	nt	CCOc1ccc(CCNC(=O)CN2Cc3ccccc3C2=O)cc1OCC
9	nt	CN(CC(=O)NCc1ccccc1)Cc1nc2ccccc2c(=O)[nH]1
-10	nt	CCSc1nnc(SCC(=O)NCc2ccc(OC)c(C(=O)O)c2)s1
10	nt	O=C(OCc1nc2ccccc2s1)c1n[nH]c(=O)c2ccccc12
24	nt	O=C(Nc1cccc(C(F)(F)F)c1)c1ccc(Br)o1
10	nt	O=C(NNc1ccccc1C(F)(F)F)c1ccno1
-8	-2.2	O=C(NCCOc1ccc2ccccc2c1)c1cncc(Br)c1
-14	1.6	CC12CC(/C(=C(O)\C=C\c3ccccc3)C(=O)N1)c1ccccc1O2 (stereo not drawn)
0	nt	CCOc1nc(-c2ccccc2O)nc2ccccc12
-16	nt	O=C(NCCN1C(=O)S/C(=C\c2cccnc2)C1=O)c1cccc(S(=O)(=O)N2CCN(c3ccc(F)cc3)CC2)c1
-8	nt	COC(=O)c1ccc(C)c(NC(=O)C2CC(=O)N(Cc3ccc(C)cc3)C2)c1 (stereo not drawn)
13	-2.5	CN1CCN(S(=O)(=O)c2ccc(NC(=S)NC(=O)C3CCCC3)cc2)CC1
nt	2.5	O=C1CSc2nnc(-c3ccncc3)n21
-9	nt	Cc1ccc(C(=O)OCN2C(=O)c3ccccc3C2=O)cc1
4	3.5	COC(=O)c1c(O)c[nH]c1C
2	0.6	CC1(C)Cc2c(sc(NC(=O)Cc3ccccc3)c2C#N)C(C)(C)N1
8	nt	O=C(OCC(=O)N1CCc2ccccc21)c1ccc(S(=O)(=O)NCc2ccco2)cc1
-16	3.1	Cc1cccc(N2CCN(C(=O)Nc3cn(C)c(=O)c4ccccc34)CC2)c1C
-5	19	O=C1C(=Cc2cccnc2)C(=O)c2ccccc21
7	-2.6	COc1ccc(C2C(C(=O)NC3CCCCCC3)CCC(=O)N2c2ccc(OC)cc2)cc1 (stereo not drawn)
2	nt	CC(=O)Nc1ccc(S(=O)(=O)NC(CC(=O)O)C(C)C)cc1 (stereo not drawn)
-5	nt	O=C(O)C1CCCN(c2nn3cc(-c4ccc(F)cc4)nc3s2)C1 (stereo not drawn)
-1	nt	O=C(c1ccc(Br)o1)N(c1ccccn1)C1CCCCC1
11	nt	N#CC(c1ccco1)N1CCN(C(=O)c2ccccc2)CC1 (stereo not drawn)
nt	-2.5	Cc1cc(C)c(C#N)c(OCc2cccc(C(F)(F)F)c2)n1
-3	0.2	Cc1ccc(CNC(=O)c2c(C)cc(=O)oc2C)cc1
18	nt	CCC1CCCCN1C(=O)Cn1c(SCc2ccc(OC)cc2)nc2ccncc21 (stereo not drawn)
11	5.2	CCc1cccc(NC(=O)Cn2cccc2)c1

# The list continues.
S aureus helic	MgrA DNA FP	structure
-34	nt	Cc1cc(C(C)C)n2c(nc3ccccc32)c1C#N
0	-1.8	CCC1(C)Cc2c(sc3nc(SC)n4c(SCc5ccccc5)nnc4c23)CO1 (stereo not drawn)
-3	nt	COc1ccccc1OCCSc1nc2ncnc(N)c2[nH]1
-12	1.0	O=C(O)Cc1ccc2ccccc2c1Br
-19	nt	CC1CCCN(Cn2cnc3ccccc32)C1 (stereo not drawn)
0	nt	CCOC(=O)c1sc(NC2CCCC2)nc1C
11	nt	CC1=NNc2nc3c(c(=O)[nH]c(=O)n3C)n2C1
14	-3.3	O=C(O)CCN1C(=O)CSC1=O
-21	nt	CN(C)C=Nc1ccc(C(=O)/C=C/N(C)C)cc1
-19	nt	CCN(CC)C(=O)c1noc2c1COc1ccccc1-2
6	nt	CN(C)S(=O)(=O)c1ccc(=O)n(CC(=O)N2CCSC2c2ccccc2F)c1 (stereo not drawn)
16	1.0	Cc1ccc(CC(=O)NCC(O)c2ccccc2)cc1 (stereo not drawn)
23	nt	O=C(O)/C=C/c1ccc(SC(F)F)cc1
nt	-2.1	C/C(=N\O)c1ccccc1Cl
-7	nt	N=c1c(C(N)=O)cc2c(=O)n3ccccc3nc2n1C1CCCC1
nt	12	COc1cc(/C=C2\C(=O)NC(=O)N(c3ccc(C)cc3)C2=O)c([N+](=O)[O-])cc1OC
nt	4.8	CC(C)c1ccc(-c2nc(O)cc(=O)s2)cc1
-37	nt	C=CCN1C(=O)/C(=C2/C=CC=CN2C)SC1=S
-7	3.0	CC(NC(N)=O)C12CC3CC(CC(C3)C1)C2 (stereo not drawn)
-22	nt	CC1Sc2ccc(S(=O)(=O)C(C)CC(=O)N3CCN(c4ccccc4F)CC3)cc2NC1=O (stereo not drawn)

# Some of the entries so far, with bars between the fields.
Compound | S aureus helic | MgrA DNA FP
COc1cc(/C=C2\C(=O)NC(=O)N(c3ccc(C)cc3)C2=O)c([N+](=O)[O-])cc1OC | nt | 12
O=C(O)/C=C/c1ccc(SC(F)F)cc1 | 23 | nt

# Three compounds from above, sorted by count of non-hydrogen atoms, smallest number first.
S aureus helic	MgrA DNA FP	structure
nt	-2.1	C/C(=N\O)c1ccccc1Cl
23	nt	O=C(O)/C=C/c1ccc(SC(F)F)cc1
-7	3.0	CC(NC(N)=O)C12CC3CC(CC(C3)C1)C2 (stereo not drawn)

# Additional records.
S aureus helic	MgrA DNA FP	structure
9	nt	C=CCn1c(SCC(=O)c2ccc3c(c2)NC(=O)CO3)nc2cc(Cl)ccc2c1=O
13	0.8	Clc1ccc2nc(N3CCCCC3)nc(-c3ccccc3)c2c1
9	-0.5	CCc1ccccc1N1CC(c2nc3ccccc3n2CCc2ccccc2)CC1=O (stereo not drawn)
3	nt	O=C(COC(=O)c1nc(Cl)ccc1Cl)c1ccc2[nH]c(=O)[nH]c2c1
1	-0.2	O=C(Cn1ccn(Cc2ccccc2)c(=O)c1=O)Nc1ccccc1
2	-2.2	Cc1ccc(OCC(=O)Nc2ccccc2OC(F)F)c(C)c1
nt	0.4	NNc1nc(Nc2cccc([N+](=O)[O-])c2)nc(N2CCCCC2)n1
-2	0.4	c1cc2c(cc1CNc1ccc3c(c1)CCC3)OCO2
nt	0.1	Cc1cc(NC(=O)NCCNc2ncccc2C(F)(F)F)c(C(F)(F)F)o1
-4	nt	CC1CCCC(C)N1Cc1cc2c3c(c(=O)oc2cc1O)CCC3 (stereo not drawn)
-21	0.7	CC(C)CNC1=NCCS1
-12	nt	O=c1[nH]c2ccccc2nc1-c1c[nH]n(-c2ccccc2)c1=O
-14	nt	CC(C)(CO)NC(=S)NCc1ccco1
-2	nt	COC(CNC(=O)c1ccc2c(c1)ncn2-c1cccc(F)c1)OC
3	-1.1	CCn1c(SC)nnc1C1CCN(C(=O)N2CCCC2)CC1
5	nt	Cc1c(C#N)c(NC(=O)CSc2nnc(-c3ccccc3)n2-c2ccc(Cl)cc2)n(CC2CCCO2)c1C (stereo not drawn)
nt	0.3	CC1=CCC2C(=O)N(c3ccccc3)C(=O)C2C1 (stereo not drawn)
nt	-1.1	COc1ccc(N(Cc2ccccn2)C(=O)c2ccc(F)cc2)cc1
24	nt	CC1CCc2c(sc3nc(Cc4nc5ccccc5n4C)[nH]c(=O)c23)C1 (stereo not drawn)
-1	-1.5	Cc1cccc2cc(C#N)c(SCC(=O)NCC3CCCO3)nc12 (stereo not drawn)
nt	-0.9	c1ccc(Oc2ccc(-c3ccnc4ncnn34)cc2)cc1
8	1.5	CCCCOc1ccc(C(=O)O/N=C(\C)c2ccco2)cc1
nt	2.1	CCCCC/C=C\CC1OC1C/C=C\C/C=C\CCCC(=O)O (stereo not drawn)
-3	1.2	CCn1nc(C)c(NC(=O)CCSc2nc(-c3ccco3)cc(C(F)(F)F)n2)c1C
7	3.3	O=CNc1nonc1NC(=O)c1ccccc1Cl
3	-0.8	CC(C)NC(=O)N1c2ccccc2Sc2ccccc21
nt	1.9	CC(C)C(=O)Nc1ccc(N2CCN(c3ccc(F)cc3)CC2)cc1
nt	1.7	N#C/C(=C\c1cccc(Cl)c1)C(=O)C1CC1
15	0.3	COC(CNC(=O)c1cnn2c(C)c(Cc3c(C)cc(C)cc3C)c(C)nc12)OC
10	nt	CCC(=O)Nc1cccc(-c2cn3ccccc3n2)c1

# A portion of the library; the hit share may differ from the screen's.
